High-throughput results: PubChem BioAssay, ICCB-Longwood Screening Facility, Harvard Medical School
PV pol inh = poliovirus RdRp elongation inhibitors, primary screen, biochemical, fluorescence polarization, total intensity; poliovirus polymerase elongation; hits give low values; AID 588519, 2011; % elongation, % (compound at 16.7 µg/mL); actives 0.66% (n = 150,000); Genome polyprotein (Poliovirus type 1 (strain Mahoney)), P03300; in the data active means % elongation below about 90%; further: some results filed as inactive read as strong as hits
Target sequence (P03300 1749-2209 limits assumed): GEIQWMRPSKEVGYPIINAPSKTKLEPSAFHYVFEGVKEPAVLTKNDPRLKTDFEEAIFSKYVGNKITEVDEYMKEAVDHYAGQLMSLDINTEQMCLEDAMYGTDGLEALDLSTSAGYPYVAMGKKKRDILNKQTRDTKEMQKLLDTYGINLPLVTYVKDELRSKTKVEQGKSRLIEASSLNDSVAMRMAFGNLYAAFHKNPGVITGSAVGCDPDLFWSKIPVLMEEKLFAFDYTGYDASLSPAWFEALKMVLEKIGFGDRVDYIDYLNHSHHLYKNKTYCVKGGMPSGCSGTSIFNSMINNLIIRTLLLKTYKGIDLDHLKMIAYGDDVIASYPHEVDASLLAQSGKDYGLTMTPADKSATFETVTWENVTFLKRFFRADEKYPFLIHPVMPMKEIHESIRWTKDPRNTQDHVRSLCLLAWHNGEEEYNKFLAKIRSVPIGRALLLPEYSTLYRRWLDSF
MenB inh = M. tuberculosis MenB inhibitors, primary screen, biochemical, absorbance | 1,4-dihydroxy-2-naphthoyl-CoA synthase (Mycobacterium tuberculosis (strain ATCC 25618 / … | MenB enzyme assay, absorbance read-out; some hits fall short of the stated cut | inhibition, %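 (about 12 µg/mL by stock and volumes)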 | actives 0.43% (n = 100,000);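 active means mean of two replicates above 30%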;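 further: 0% = no compound and 100% = wells with inactive enzyme; the first replicate is given; strong numbers were not always called active; inactives centre near -10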
Target sequence (P9WNP5 whole entry, looked up): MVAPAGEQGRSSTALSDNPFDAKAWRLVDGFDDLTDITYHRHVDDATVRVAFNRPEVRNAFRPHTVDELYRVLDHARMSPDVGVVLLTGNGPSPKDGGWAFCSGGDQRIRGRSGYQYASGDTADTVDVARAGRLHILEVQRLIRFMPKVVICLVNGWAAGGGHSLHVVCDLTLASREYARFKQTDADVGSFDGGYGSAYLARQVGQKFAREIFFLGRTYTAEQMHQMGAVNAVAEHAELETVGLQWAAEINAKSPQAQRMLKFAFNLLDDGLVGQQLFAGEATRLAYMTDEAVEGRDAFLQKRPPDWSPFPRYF
MbtI inh = MbtI salicylate synthase inhibitors, primary screen, biochemical, fluorescence intensity; purified MbtI enzyme, fluorescence intensity read-out; inhibition, %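 (about 17 µg/mL by stock and volumes)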; actives 0.89% (n = 100,000);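 active means above 50% in both replicates, above 80% if mildly self-fluorescent; inactive means the rest, strongly fluorescent compounds included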;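 further: 0% = mean of negative and 100% = mean of positive controls; one replicate is shown; some compounds called inactive have numbers as strong as hits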
PV pol inh intensity = second read-out of PV pol inh, no call of its own (marks repeat the call); % elongation; measured here: total intensity read-out; formula for this scale not given here;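 total fluorescence in place of polarization; lower means less elongation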
Active calls of the source: *; / = no result given; & = joins results of further samples.

A first look:
SMILES	PV pol inh	PV pol inh intensity	MenB inh	MbtI inh
CCN(CC)c1ccc2nnc(CCC(=O)N(CC)c3ccccc3)n2n1	104	98	-36	-18
CC(C)c1cccc(C(C)C)c1NC(=O)c1ccncc1	102	101	-18	-12
O=C(Cn1ccn(-c2ccc(F)cc2)c(=O)c1=O)Nc1ccccc1	102	101	-14	-9
CCOC(=O)C1C2NC(=S)N[C@]1(C)Oc1ccccc12 (stereo partly specified)	106	95	-7	/
c1nc(NCCN2CCOCC2)c2nc3n(c2n1)CCCCC3	104	103	-15	-8
CN(C)c1nc(N)nc(C2CCCN2S(=O)(=O)c2ccc3ccccc3c2)n1 (stereo unspecified)	104	99	-9	/
COc1cc2c(cc1OC)C1(CCCC1)CN(C(=O)c1cc(Br)ccc1OC)C2	101	106	-19	10

The list itself, previewed entries included:
SMILES	PV pol inh	PV pol inh intensity	MenB inh	MbtI inh
CCN(CC)c1ccc2nnc(CCC(=O)N(CC)c3ccccc3)n2n1	104	98	-36	-18
CC(C)c1cccc(C(C)C)c1NC(=O)c1ccncc1	102	101	-18	-12
O=C(Cn1ccn(-c2ccc(F)cc2)c(=O)c1=O)Nc1ccccc1	102	101	-14	-9
CCOC(=O)C1C2NC(=S)N[C@]1(C)Oc1ccccc12 (stereo partly specified)	106	95	-7	/
c1nc(NCCN2CCOCC2)c2nc3n(c2n1)CCCCC3	104	103	-15	-8
CN(C)c1nc(N)nc(C2CCCN2S(=O)(=O)c2ccc3ccccc3c2)n1 (stereo unspecified)	104	99	-9	/
COc1cc2c(cc1OC)C1(CCCC1)CN(C(=O)c1cc(Br)ccc1OC)C2	101	106	-19	10
CC(=O)Oc1cc(C(C)C)c(OCCN(C)C)cc1C	99	99	-6	-13
C=CCN=C1S/C(=C\N(C)C)C(=O)N1S(=O)(=O)c1ccc(C)cc1	102	99	-5	-3
O=C1CC(c2nc(-c3ccccc3)no2)CN1c1ccccc1 (stereo unspecified)	105&105	115&99	-23	-21
Cn1c(COc2ccccc2)nnc1SCC(=O)N1CCc2ccccc21	102	103	-17	-20
O=C(Nc1ccccc1I)C1(S(=O)(=O)c2ccccc2)CCCC1	101	101	/	-3
CN(Cc1cccs1)C(=O)[C@H](Cc1ccccc1)NC(=O)c1ccco1	99	104	0	1
O=C(NC1CC1)c1cccc(NC(C(=O)N2CCOCC2)c2ccccc2)c1 (stereo unspecified)	101	97	4	15
N#Cc1cnc(SCC(=O)NC(=O)Nc2ccccc2)nc1N	99	105	13	-8
COc1ccc(N(C)C(=O)Cc2c(C(=O)O)n(C)c3ccccc23)c(OC)c1	105	104	-11	18
CC(C)(C)c1ccc2c(c1)c1c3n2CCN(CCC#N)C3CCC1 (stereo unspecified)	99	104	-10	-133
COc1ccc(NC(C)C(=O)NC2CCCCC2C)cc1 (stereo unspecified)	104	100	-13	3
NC(=O)c1ccc(NC(=O)COC(=O)Cc2cn3ccsc3n2)cc1	101	109	-3	-7
CCn1c(=S)sc2nc(C)sc21	101	106	9	101*
COc1ccc(NC(=O)Cn2ccn(Cc3ccccc3)c(=O)c2=O)cc1	102	104	-23	11
O=C(CSc1ccccn1)N(C1=CCCCC1)C1CC1	103	108	-11	22
CC(C)C(OC(=O)c1ccc(Cl)nc1)C(=O)NC1CCCCC1 (stereo unspecified)	102	102	-3	-28
Cc1cccc(C)c1NC(=S)NCCC(=O)O	102	104	-7	-5
COc1ccc(-c2cc(C(=O)Nc3ccc(F)cc3)c(C(F)(F)F)o2)cc1	106	108	-20	-4

Later entries:
SMILES	PV pol inh	PV pol inh intensity	MenB inh	MbtI inh
C=CCC(N)(CC=C)c1ccncc1	98	100	-6	1
Cc1cc(NC(=O)c2sc(Nc3cccc(C(F)(F)F)c3)nc2N)no1	101	103	-9	/
COC(=O)c1ccc2c(=O)[nH]c(COC(=O)c3oc4ccccc4c3C)nc2c1	102	106	5	-2
O=C(CSc1nc(O)cc(=O)n1C1CCCC1)NC12CC3CC(CC(C3)C1)C2	/	/	-105	13
CCCOC(=O)Cn1cnc2sc(C)c(C)c2c1=O	103	110	-2	/
CCOC(=O)c1cnn(-c2nnc(-c3ccccc3)c3ccccc23)c1/N=C/N(C)C	99	103	-33	20
O=c1[nH]c(=S)[nH]c(O)c1C=NC12CC3CC(CC(C3)C1)C2	99	104	-29	0
c1cc2c(cc1CNC1CCCC1)OCO2	101	102	-24	-1
Cc1ccc2cc3cc(C(=O)NCCCN4CC(C)CC(C)C4)oc3nc2c1 (stereo unspecified)	100	103	-5	117
Cc1cc(C(=O)OCCOc2ccc(Br)cc2)c(C)o1	102	101	-1	-8
CC(C)Nc1nc(NC(C)C)nc(C(N)=O)n1	100	100	35*	5
O=C1NC(=O)/C(=C/C(=O)N2CCCCC2)S1	100	101	-3	16
CSc1nsc(SC)c1NC(=O)N1CCCCC1	105	111	2	/
CN1C(=O)C2(c3ccccc31)N(c1cccc(Cl)c1)C(=O)CS2(=O)=O (stereo unspecified)	102	101	12	2
CC(C)C1(C)N=C(c2ccc3c(c2)OCO3)CC(c2ccccc2O)N1 (stereo unspecified)	104	107	-21	20
COC(=O)C(Cc1ccccc1)n1c(C)ccc1C (stereo unspecified)	101	92	-13	12
C=CCn1c(CNC=O)nc2ccccc21	101	104	-26	-19
O=C(COC(=O)C1CCCCC1)NCc1ccc(Cl)cc1	101	107	/	-6
CC1=CC(C)(C)N(C(=O)NC2CCCCC2)c2ccccc21	99	100	-1	-10
CC(SCC(=O)N1CCN(c2ccccc2)CC1)C(=O)O (stereo unspecified)	99	100	4	14
O=C1NC2(CCCc3ccccc32)C(=O)N1CN1CCc2ccccc2C1 (stereo unspecified)	102	107	5	-3
C[C@]12CC[C@@H]3c4ccc(O)cc4CC[C@H]3[C@@H]1CCC2=O	101	101	-9	-20
CCOC(=O)Cn1ncc(-c2ccccc2)c1N	104	99	-67	60
O=C(COc1ccc(-c2nnco2)cc1)Nc1ccccc1Sc1ccccc1	104	108	20	-7
O=C(CC(=O)c1ccccc1O)c1ccc(Cl)cc1	102	103	-10	-10

Gathered by group: the entries above containing a cyano group.
SMILES	PV pol inh	PV pol inh intensity	MenB inh	MbtI inh
N#Cc1cnc(SCC(=O)NC(=O)Nc2ccccc2)nc1N	99	105	13	-8
CC(C)(C)c1ccc2c(c1)c1c3n2CCN(CCC#N)C3CCC1 (stereo unspecified)	99	104	-10	-133

Later entries
SMILES	PV pol inh	PV pol inh intensity	MenB inh	MbtI inh
O=C1CNc2ccc(C(=O)NCCC3=CCCCC3)cc2N1	104	106	-15	112
C[N+]1(CC2COC(c3ccco3)O2)CCCCC1 (stereo unspecified)	101	100	-1	-4
O=c1[nH]c(=S)n(-c2cccc(Cl)c2)c2c1CN(C1CCCC1)CN2	99	102	52*	16
CCCC12CN3CC(CCC)(CN(C1)C(=O)c1ccccc1C3=O)C2=O	99	102	-23	-13
COc1ccc2c(c1)C(c1ccc(N3CCOCC3)cc1)=NNC(c1cccnc1)=N2	104	101	-4	-23
CC1CCCC(C)N1c1nn(C)c(=O)[nH]1 (stereo unspecified)	100	109	-2	-5
Cn1c(CCCNC=O)nc2ccccc21	98	103	-26	-1
N#Cc1cc(C(=O)O)c(N)[nH]c1=O	93	93	3	99
CCC(c1nnnn1CC1CCCO1)N(Cc1ccc2c(c1)OCO2)Cc1cc2cc(C)cc(C)c2[nH]c1=O (stereo unspecified)	101	101	15	167
CC(=O)N=c1sccn1CC(O)c1ccc(Br)cc1 (stereo unspecified)	104	107	-5	-11
CC1CCN(C(=O)COc2ccccc2Cl)CC1	105	103	-37	-11
COC(=O)CCC(=O)c1ccc(Cc2ccc(C(=O)CCC(=O)OC)s2)s1	98	100	-15	11
Cc1ccc(NC(=S)NCC2COc3ccccc3O2)cc1 (stereo unspecified)	98	96	-19	-10
O=C(OCc1ccccc1)C1=COCCO1	103	104	/	0
CCOC(=O)N1CCN(c2nc3ccccc3nc2Nc2sc3c(c2C#N)CCCC3)CC1	126	129	-2	17
COC(=O)/C=C1\SC(=Nc2ccc(Cl)c(Cl)c2)NC1=O	103	102	-36	-9
CCCC1C(c2ccccc2)C2(C#N)C(=O)NC1(O)CC2(C#N)C#N (stereo unspecified)	100	98	-5	/
C=CCn1c(=N)c(C(=O)OC)cc2c(=O)n3cccc(C)c3nc21	101	105	-14	78
Cc1ccc(C2=NN(C(=O)COC(=O)Cn3nc(-c4ccccc4)oc3=O)C(c3ccco3)C2)cc1 (stereo unspecified)	105	104	-47	199
CCCSc1nc2ccccc2n1CC(=O)N1CCN(Cc2ccccc2)CC1	105	106	-8	8
COc1cc(OC)cc(-n2c(=O)c3ccccc3n(Cc3cc(=O)n4ccccc4n3)c2=O)c1	96	96	-27	3
COC(=O)c1sccc1Oc1ccc(C(F)(F)F)cc1NC(=O)/C=C/C(=O)O	103	108	-5	-8
C[C@]12CCC3c4ccc(O)cc4CCC3C1CCC2=O (stereo partly specified)	101	102	-11	-13
Cc1nc(-n2nnc3cc(C)c(C)cc32)c2c3c(sc2n1)CCCC3	101	98	-26	1
CS(=O)(=O)N1Cc2ccccc2CC1C(=O)N1CCN(C(=O)c2cccs2)CC1 (stereo unspecified)	104	104	-16	-4

Whole records from above:
C[N+]1(CC2COC(c3ccco3)O2)CCCCC1 (stereo unspecified) is listed with PV pol inh = 101; PV pol inh intensity = 100; MenB inh = -1; MbtI inh = -4
COc1ccc2c(c1)C(c1ccc(N3CCOCC3)cc1)=NNC(c1cccnc1)=N2 is listed with PV pol inh = 104; PV pol inh intensity = 101; MenB inh = -4; MbtI inh = -23

Next part:
SMILES	PV pol inh	PV pol inh intensity	MenB inh	MbtI inh
COC(=O)CN1C(=O)c2cccnc2Sc2ccccc21	104	103	0	-2
O=C1c2ccccc2C(=O)N1Cc1nc2ncccc2[nH]1	101	106	-7	-8
CC(OC(=O)c1ccc(S(=O)(=O)N2CCCC2)cc1)C(=O)N1CCc2ccccc21 (stereo unspecified)	103	104	8	19
Cc1ccccc1CN1CCC(CN)CC1	98	105	-11	-11
COc1ccc(-c2coc3c(C)c4oc(=O)c5c(c4cc23)CCCC5)cc1F	101	95	-16	3
CN(CCN1CCOCC1)C1CCN(C(=O)CNC(=O)/C=C/c2cccc(C(F)(F)F)c2)CC1	101	101	9	0
O=C(c1cccc2ccccc12)c1nc2c(n1O)CCCC2	101	103	-31	11
CCn1c(=O)cc(SCC(=O)NCCCN2CCCC2)c2ccccc21	100	102	-9	24
CCN(CC)CCN1C(=O)C(=O)/C(=C(/O)c2ccc3c(c2)OCCO3)C1c1cccc(Cl)c1 (stereo unspecified)	100	103	-43	-10
CCC1SC2=NCN(c3ccccc3)CN2C1=O (stereo unspecified)	101	105	-9	-4
CC1=C(C(=O)OCc2ccccc2)C(c2ccccc2)NC(=O)N1C (stereo unspecified)	101	102	-6	-7
COc1cccc(C(=O)Nc2ccc(N3CCCC3)cc2)c1	102	104	-39	-7
COc1cc(OC)c(C2=NOC(C(=O)NCCCN3CCOCC3)C2)cc1Cl (stereo unspecified)	102	103	-32	-49
NC(N)=NC(N)=Nc1ccc(Cl)cc1Cl	100	98	-10	-12
O=C(c1ccccc1)N1CCN(S(=O)(=O)N2CCCCCC2)CC1	104	102	-22	-4
CCCCc1ccc(NS(=O)(=O)CC23CCC(CC2=O)C3(C)C)cc1 (stereo unspecified)	102	98	/	0
c1ccc(CN2CCOCC2)cc1	101	93	-14	20

Not a hit list (roughly 2% active in at least one column).
